Cruzain noTriton: qHTS Assay for Promiscuous and Specific Inhibitors of Cruzain (without detergent) | Cruzipain (Trypanosoma cruzi), P25779 | purified cruzain, Z-FR-AMC fluorescence, no detergent | Potency, µM, inactives show max response, negative = inhibition, hits mostly inhibitors | 2.3% of 200,000 active; active = well fitted curve in the direction sought with a large enough effect; inconclusive = small, poorly fitted or top-dose-only effect, or another doubt; inactive = no such curve, though single readings can be large; an effect the other way counts as inactive or inconclusive;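 also: plate controls were enzyme without inhibitor for no effect and buffer without enzyme for full effect; nearly all actives have a fitted effect of over 40% in size; top concentration of the series not given in the record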
Target sequence (P25779 123-467 limits assumed): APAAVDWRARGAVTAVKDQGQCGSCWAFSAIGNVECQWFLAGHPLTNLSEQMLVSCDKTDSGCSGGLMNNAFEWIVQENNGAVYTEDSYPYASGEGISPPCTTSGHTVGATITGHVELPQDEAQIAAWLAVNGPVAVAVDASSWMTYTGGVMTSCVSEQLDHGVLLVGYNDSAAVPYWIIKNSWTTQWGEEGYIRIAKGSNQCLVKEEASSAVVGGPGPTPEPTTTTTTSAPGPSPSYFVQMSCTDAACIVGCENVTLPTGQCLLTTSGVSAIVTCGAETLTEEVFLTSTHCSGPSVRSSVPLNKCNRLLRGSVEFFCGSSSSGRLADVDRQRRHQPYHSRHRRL
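Purified cruzain at 1.5 nM, pre-incubated 15 min with compound at room temperature in 100 mM sodium acetate pH 5.5, 5 mM DTT, 0.00005% Triton X-100. Reaction started with 2 uM Z-FR-AMC; AMC fluorescence increase over 60 s gives rate.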
SARS PLpro yeast: qHTS of Yeast-based Assay for SARS-CoV PLP; AID 485353, 2010; Potency, µM (titrated, usually from 32.9 µM), for the others: at the highest dose activity, positive = growth rescue; S. cerevisiae expressing SARS-CoV PLpro, growth rescue; control for the full effect not named in the record; 0.19% of 330,000 active; also: 0% is about no effect; nearly all actives have a fitted effect of over 55% in size; growth read by luminescence after 48 h
Lassa entry inh: qHTS for Inhibitors of binding or entry into cells for Lassa Virus; 1.2% of 300,000 active; Lassa virus pseudotype entry inhibition, cell reporter; control for the full effect not named in the record; Potency, µM (doses to about 37.9 µM), for inactives: top-dose activity change, negative = inhibition, most hits filed as inhibitors; active means well fitted inhibition curve with a large enough effect; inconclusive means small, poorly fitted or top-dose-only effect, or effect the other way; inactive means flat fitted curve, though single readings scatter; tested in HEK293 cells; also: % is scaled to controls: 0 for no effect and ±100 for the full control effect; nearly all actives have a fitted effect of over 50% in size; luciferase read-out
NS1 inh: qHTS Assay for Inhibitors of Influenza NS1 Protein Function. S. cerevisiae slowed by influenza A NS1, growth recovery by OD600. Potency, µM (titrated, usually from 46.1 µM), without a hit: at the top dose activity, positive = more growth. 0.4% of 270,000 active. AID 2326, 2010; also: actives are rising curves; nearly all actives have a fitted effect of over 50% in size
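A cell-based growth assay was used: compounds that relieve NS1-induced slow growth of budding yeast raise OD600. Assay medium was yeast nitrogen base with ammonium sulphate and -URA supplement, pH 6.0, with 2% galactose.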
RE007 growth inh: qHTS Assay for Inhibitors of the HIV-1 protein Vpr; Potency, µM (highest dose often 92.2 µM), inactives show at the top dose activity change, negative = less growth; 0.21% of 360,000 active; S. pombe RE007 Vpr strain, BacTiter-Glo ATP luminescence, 24 h; control for the full effect not named in the record; AID 651644, 2012; active = well fitted falling curve with a large enough effect; inconclusive = small, poorly fitted or top-dose-only effect; inactive = no such curve, though single readings can be large or run the other way;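 also: % is scaled to controls: 0 for no effect and ±100 for the full control effect; nearly all actives have a fitted effect of over 50% in size; the assay follows cell death caused by Vpr and the record does not say whether a fall means rescue or toxicity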
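Fission yeast strain RE007, carrying one chromosomally integrated HIV-1 vpr copy, was seeded at OD 0.01 in PMG+AL medium with 23 nL pinned compound. After 24 h at 30 °C and 99% humidity, viability was read by BacTiter-Glo luminescence.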
2A StopGo: High Throughput Screening for Foot and Mouth Disease Virus Antivirals. AID 1159524, 2015. 1.2% of 410,000 active. human cells with a luciferase reporter of 2A StopGo recoding; control for the full effect not named in the record. Potency, µM (series often up to 57.9 µM), for inactives: at the top dose signal change, negative = less light; active = well fitted falling curve with a large enough effect; inconclusive = small, poorly fitted or top-dose-only effect; inactive = no such curve, though single readings can be large or run the other way; tested in HEK293T cells; also: % is scaled to controls: 0 for no effect and ±100 for the full control effect; nearly all actives have a fitted effect of over 45% in size; luciferase light after 4 h
Cruzain inh Det: qHTS Assay for Promiscuous and Specific Inhibitors of Cruzain (with detergent) | Potency, µM, inactives show max response, negative = inhibition, usual class: inhibitors | Cruzipain (Trypanosoma cruzi), P25779 | 0.43% of 200,000 active | purified cruzain, Z-FR-AMC fluorescence, 0.01% Triton; active = well fitted curve in the direction sought with a large enough effect; inconclusive = small, poorly fitted or top-dose-only effect, or another doubt; inactive = no such curve, though single readings can be large; an effect the other way counts as inactive or inconclusive;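 also: plate controls were neutral wells for no effect and buffer without enzyme for full effect; nearly all actives have a fitted effect of over 40% in size; top concentration of the series not given in the record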
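In this qHTS format, compounds are incubated with 1.5 nM cruzain for 15 min at room temperature before 2 uM Z-FR-AMC is added. Release of AMC is followed at 360/450 nm, and progress is taken as the 60 s fluorescence difference.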
Marburg entry inh: qHTS for inhibitors of binding or entry into cells for Marburg Virus | 1.8% of 300,000 active | Potency, µM (doses to about 37.8 µM), inactives show at the top dose activity change, negative = inhibition, most hits filed as inhibitors | AID 540276, 2011 | Marburg virus pseudotyped entry inhibition, cell reporter; control for the full effect not named in the record; about a third of the inactives were read at about 46 µM; active = well fitted inhibition curve with a large enough effect; inconclusive = small, poorly fitted or top-dose-only effect, or effect the other way; inactive = flat fitted curve, though single readings scatter; tested in HEK293 cells; about a fifth of its hits are not listed in these tables; also: % is scaled to controls: 0 for no effect and ±100 for the full control effect; luciferase read-out
Active calls of the source: *; ? = inconclusive; nt = not tested or not shown; & = joins results of further samples; [ ] = another dose, or the depositor's remark. Unless noted, calls follow the shape of the dose curve; as a rule, active means well fitted rising curve with a large enough effect; inconclusive means small, poorly fitted or top-dose-only effect; inactive means no such curve, though single readings can be large or run the other way. Potency is read from the fitted curve at half-maximal effect.

Every second line gives: 2A StopGo	Marburg entry inh	Lassa entry inh	Cruzain inh Det	RE007 growth inh	SARS PLpro yeast	Cruzain noTriton	NS1 inh
- CC(CC(=O)O)CC(=O)Nc1nncs1 (stereo unspecified)
  -6.3%	-5.9%[46.1 µM]	-3.9%	nt	5.7%	4.7%	nt	3.9%
- CCOC(CNC(=O)c1ccc2c(c1)ncn2-c1cccc(F)c1)OCC
  15.1%	?	2.1%[46.1 µM]	nt	-12.4%	0.7%	nt	nt
- CC1CCCN(C(=O)CCNS(=O)(=O)c2ccc3c(c2)c(=O)n(C)c(=O)n3C)C1 (stereo unspecified)
  9.6%	nt	nt	nt	4.2%	6.4%	nt	6.8%
- COCCN1CCC(CNCc2c(C(=O)N3CCCCC3)nc3c(C)cccn23)C1 (stereo unspecified)
  9.3%	nt	nt	nt	2.2%	4.9%	nt	1.8%
- Cc1c(Cl)c([N+](=O)[O-])nn1CC(=O)NC(C)c1ccccc1 (stereo unspecified)
  -14.0%	nt	nt	nt	-6.0%	-0.1%	nt	1.5%
- CCc1nnc(NC(=O)CSc2nc(-c3ccccc3)cc(-c3ccc(OC)cc3)c2C#N)s1
  ?	0.5%	0.0%	-3.1%	9.9%	35.0%	12.6µM*	16.8%
- Cc1ccc(S(=O)(=O)/N=C(/Nc2ccccn2)c2ccc(Cl)cc2)cc1
  41.2%[activator]	-6.8%	6.7%	-2.0%	-7.4%	16.1%	7.3%	15.4%
- Cc1nc(C)c(C(=O)Nc2ncc([N+](=O)[O-])s2)o1
  -92.1%	?	5.62µM*	nt	?	-5.1%	nt	nt
- N#CC1=C(N)SC(N)=C(C#N)C1c1c(Cl)cccc1Cl
  -10.6%	-1.7%	-3.0%	-8.1%	11.1%	19.8%	-10.5%	9.8%
- COc1ccc(CCNC(=O)Cc2cc3c(cc2[N+](=O)[O-])OCO3)cc1OC
  -12.2%	7.2%	8.7%	nt	-7.7%	nt	nt	nt
- O=C(CSc1nnnn1-c1ccc(F)cc1)Nc1ccc(N2CCOCC2)c(Cl)c1
  ?	8.0%	1.6%	-3.1%	-16.0%	-2.6%	6.7%	-0.8%
- Cc1ccc(C(=O)N(C)Cc2nc3ccccc3c(=O)[nH]2)cc1NC(=O)c1ccco1
  -8.9%	-7.7%[46.1 µM]	1.7%[46.1 µM]	nt	2.2%	-0.8%	nt	nt
- COCCN1CCc2nc(SCC(=O)Nc3ccc(Br)cc3)[nH]c(=O)c2C1
  -15.2%	1.8%[46.1 µM]	2.5%[46.1 µM]	-1.3%	nt	nt	-8.4%	nt
- COc1ccc(C2C=C(c3ccc(F)cc3)Nc3nc(-c4ccc(Cl)cc4)nn32)cc1 (stereo unspecified)
  ?	?	?	2.0%	nt	nt	-21.9%	nt
- COCCn1c(SCC(=O)Nc2cc(C(C)(C)C)nn2-c2ccccc2)nnc1-c1ccncc1
  -17.3%	-6.5%	-9.4%	3.0%	-11.7%	-5.4%	29.4%	1.3%
- CCCC(=O)N(Cc1cccnc1)c1nc2c(OC)ccc(Cl)c2s1
  -12.4%	-8.9%[46.1 µM]	0.5%[46.1 µM]	nt	3.9%	26.2%	nt	0.7%
- O=C(Cc1ccccc1)Nc1ccc2[nH]ncc2c1
  12.8%	nt	nt	nt	6.6%	2.3%	nt	10.3%
- COc1ccc(NC(=O)CN(C)S(=O)(=O)c2ccc3c(c2)CC(C)N3C(C)=O)cc1OC (stereo unspecified)
  -24.6%	nt	nt	nt	-4.4%	-0.9%	nt	7.0%
- CC(=O)c1ccccc1OCCOCCOc1ccccc1C(C)=O
  ?	?	?	-4.3%	-15.9%	?	1.4%	-4.3%
- CC(NC(=O)C1(S(=O)(=O)c2ccc(Cl)cc2)CC1)c1ccccc1 (stereo unspecified)
  -13.2%	16.9%	-14.2%	-0.1%	1.2%	-18.7%	1.4%	-12.7%
- O=C(NC1CCN(Cc2ccccc2)CC1)c1ccc(Cl)cc1Cl
  -10.1%	nt	nt	nt	0.9%	5.5%	nt	-3.7%
- O=C(Cn1[nH]c(=O)c2ccccc2c1=O)OCC(=O)c1ccccc1Cl
  7.2%	?	14.6%	nt	2.5%	2.3%	nt	nt
- CCOC(=O)CN1C(=O)N[C@@H](c2ccccc2)C(C(C)=O)=C1C
  -17.3%	7.7%	-7.7%	1.9%&-0.4%	7.9%	-4.6%	-3.6%&-1.9%	-2.6%
- CC(C)(C)c1csc(SCC(=O)Nc2ccc(Cl)cn2)n1
  ?	6.4%	?	-6.1%	-25.6%	-35.1%	0.1%	-0.6%
- O=C(N/N=C/c1c(Cl)[nH]c2ccccc12)c1ccc2c(c1)OCCO2
  -0.1%	?	?	nt	-20.6%	0.7%	nt	-8.5%
- Cc1oc2c(CN3CCOCC3)c(O)ccc2c(=O)c1-c1ccc(Br)cc1
  -25.4%	-10.6%&-10.6%	-26.8%	0.5%	-9.6%	3.9%	1.0%	-6.9%
- Cc1nn(-c2ccccc2)c(OC(=O)c2cccs2)c1S(=O)(=O)c1ccccc1
  -9.9%	3.8%[46.1 µM]	-9.4%	5.2%	-13.6%	-12.9%	-6.1%	-29.9%
- Cc1ccc(NC(=S)NN2CCOCC2)c(C)c1
  2.1%	18.5%	-1.3%	0.7%	-3.9%	5.6%	-3.0%	0.6%
- Cc1nc(SCC(=O)NC2CCCC2)[nH]c(=O)c1C
  27.1%	-2.3%[46.1 µM]	13.2%[46.1 µM]	nt	2.0%	1.5%	nt	1.3%
- C(=C\c1ccccc1)/C=N/Nc1nc2ccccc2s1
  46.4%[activator]	15.6%	22.5%	-9.0%	8.8%	1.5%	?	8.6%
- O=c1/c(=C\c2cc([N+](=O)[O-])cc([N+](=O)[O-])c2O)sc2nc3ccccc3n12
  5.6%	6.2%	-0.8%	nt	1.4%	2.1%	nt	nt
- NS(=O)(=O)c1ccc(N2CCOCC2)c(C(=O)NCc2cccs2)c1
  -14.2%	8.0%	19.7%	nt	1.0%	4.5%	nt	nt
- CCN(CC)c1ccc(C2Nc3ccccc3-c3cc(C)nn32)cc1 (stereo unspecified)
  -12.2%	-8.4%[46.1 µM]	?	-6.7%	nt	nt	2.9%	nt
- Cc1ccc(-c2cc(C(=O)O)c3cc(Br)ccc3n2)s1
  0.0%&23.4%	18.1%&18.1%	?	nt	-18.0%&-22.9%	1.0%&-4.8%	nt	-59.9%&-35.8%
- NC(=O)C1(N2CCCCC2)CCN(CC(=O)Nc2ccccc2Sc2ccccc2)CC1
  nt	?	-27.1%	-0.7%	-0.2%	2.2%	5.1%	0.3%
- COc1ccc(-c2nnc(SCC(=O)NC3CCCCC3)o2)cc1OC
  -21.8%	nt	nt	-0.2%	-7.6%	-6.3%	-20.6%	-18.7%
- COc1cccc(-c2cc(C(F)(F)F)nc(NCc3ccc(F)cc3)n2)c1
  -16.1%	-13.6%[46.1 µM]	-9.1%[46.1 µM]	-8.7%	nt	nt	?	nt
- O=C(CCCN1C(=O)c2ccccc2C1=O)Oc1ccc(Cl)cc1
  -11.7%	-12.0%	15.6%	-15.1%	?	-23.6%	-4.9%	-45.8%
- Cc1ccccc1S(=O)(=O)Cc1ccc(C(=O)NC2CCC(C)CC2)o1 (stereo unspecified)
  -12.7%&-15.6%	-1.7%&-1.7%[46.1 µM]	2.1%[46.1 µM]	0.7%	-3.0%	-7.2%	-0.1%	1.2%
- COc1ccc(-c2n[nH]c(=S)n2-c2ccc(Br)cc2)cc1OC
  -9.5%	nt	nt	nt	10.9%	-12.2%	nt	-4.0%
- Cn1c(N2CCCC2)nc2c1c(=O)n(Cc1cccc(F)c1)c(=O)n2C
  -15.5%	-3.8%	-16.7%	-1.5%	4.0%	0.9%	13.2%	-0.6%
- O=C(CN1CCSCC1)N1CCc2[nH]c3ccc(Br)cc3c2C1
  nt	nt	nt	-3.3%	nt	-6.4%	-2.1%	-0.3%
- Cc1nc2c(C)cccn2c(=O)c1NC(=O)c1ccco1
  -1.7%	21.3%	14.0%	nt	-11.5%	11.2%	nt	nt
- COc1cccc(NC(=O)COc2nc3ccccc3nc2C)c1
  -0.9%	2.1%	2.0%	-0.4%	-4.1%	5.9%	-14.2%	-16.3%
- OCCNc1nc(N2CCCCC2)nc2ccccc12
  -14.6%	?	1.4%[46.1 µM]	nt	4.2%	2.1%	nt	-1.2%
- CC(C)COc1ccc(C2=NC(c3ccncc3)=Nc3ccc(F)cc3N2)cc1
  0.0%	5.6%[46.1 µM]	3.6%[46.1 µM]	-3.6%	nt	nt	4.0%	nt
- CCN(Cc1ccccc1)S(=O)(=O)c1ccc(N2CCCCS2(=O)=O)cc1
  ?	nt	-16.4%[46.1 µM]	-2.6%	nt	nt	4.1%	nt
- Cc1cccc(C(=O)O/N=C2\CCS(=O)(=O)c3sccc32)c1
  34.9%[activator]	11.0%	21.3%	-5.0%	0.8%	9.3%	-2.5%	3.4%
- COc1ccc(/C=N/NC(=O)CN2CCSCC2)cc1C
  -15.8%	24.2%	11.8%	-1.7%	2.7%	4.3%	3.5%	11.7%
- CC1CCN(C(=O)c2ccc3c(c2NCCO)C(=O)c2ccccc2C3=O)CC1
  ?	-8.2%[46.1 µM]	9.0%	-8.1%	3.3%	-6.5%	?	1.1%

Compound profiles, from the list above. Order of values: 2A StopGo | Marburg entry inh | Lassa entry inh | Cruzain inh Det | RE007 growth inh | SARS PLpro yeast | Cruzain noTriton | NS1 inh
Entry for `COc1ccc(-c2n[nH]c(=S)n2-c2ccc(Br)cc2)cc1OC` = -9.5% | nt | nt | nt | 10.9% | -12.2% | nt | -4.0%
Entry for `Cc1cccc(C(=O)O/N=C2\CCS(=O)(=O)c3sccc32)c1` = 34.9%[activator] | 11.0% | 21.3% | -5.0% | 0.8% | 9.3% | -2.5% | 3.4%

Screening data from PubChem BioAssay.
